Arbovirus inh – antivirals against arbovirus infection, primary screen, cell-based, full library, 10K replicate subset; inhibition, % at 10 µM; arbovirus infection cell-based antiviral screen; 200,000 compounds, 0.37% hits;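 active = inhibition from about 30%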;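 also: bluetongue infection of BSR cells; cell survival read as ATP light after 72 h; 0% = infected wells without compound and 100% = uninfected wells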
YopH PTP inh – YopH tyrosine phosphatase inhibitors, primary screen, biochemical, fluorescence Ex485/Em525; YopH tyrosine phosphatase [Yersinia enterocolitica]; inhibition, %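 (about 10 µM by stock and volumes)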; 140,000 compounds, 0.16% hits; AID 898, 2007;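 active = inhibition of 50% or more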;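 also: controls were vehicle for no effect and minimum signal wells for full effect; inactives centre near -20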
RecA splice inh – Mtb RecA intein splicing inhibitors, primary screen, biochemical, fluorescence, HTS; cell-free RecA intein splicing; inhibition, %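 (about 9 µM by stock and volumes)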; 290,000 compounds, 0.75% hits; in the data active = inhibition above about 30%; inconclusive = no clear call, values can overlap the other calls;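 also: 0% = vehicle wells and 100% = reference inhibitor control wells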
Target sequence (P9WHJ3 whole entry, looked up, canonical isoform): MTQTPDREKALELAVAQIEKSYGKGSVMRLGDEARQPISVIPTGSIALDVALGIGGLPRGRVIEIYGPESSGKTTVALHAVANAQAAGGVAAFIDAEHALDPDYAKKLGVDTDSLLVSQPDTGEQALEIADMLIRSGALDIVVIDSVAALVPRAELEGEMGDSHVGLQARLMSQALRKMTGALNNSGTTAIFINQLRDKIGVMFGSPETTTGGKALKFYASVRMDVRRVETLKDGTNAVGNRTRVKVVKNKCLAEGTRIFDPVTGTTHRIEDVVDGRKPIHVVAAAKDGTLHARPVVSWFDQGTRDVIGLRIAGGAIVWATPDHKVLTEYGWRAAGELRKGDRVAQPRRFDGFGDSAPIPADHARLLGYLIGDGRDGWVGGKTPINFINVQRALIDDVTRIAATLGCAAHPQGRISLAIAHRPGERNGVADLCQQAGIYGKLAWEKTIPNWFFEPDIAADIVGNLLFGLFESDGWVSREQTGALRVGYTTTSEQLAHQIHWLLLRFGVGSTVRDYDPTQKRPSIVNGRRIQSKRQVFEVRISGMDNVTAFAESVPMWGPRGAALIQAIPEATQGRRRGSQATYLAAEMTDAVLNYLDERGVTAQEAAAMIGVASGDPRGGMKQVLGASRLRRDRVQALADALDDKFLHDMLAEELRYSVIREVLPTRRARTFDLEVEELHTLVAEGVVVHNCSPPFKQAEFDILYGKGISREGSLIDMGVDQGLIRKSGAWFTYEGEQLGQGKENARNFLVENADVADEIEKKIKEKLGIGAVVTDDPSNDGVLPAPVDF
Mtb bLac sens – beta-lactam sensitization of Mtb H37Rv, H37Rv. 330,000 compounds, 0.27% hits. inhibition, % at 25 µM. M. tuberculosis H37Rv growth with meropenem, percent inhibition; hits of this screen are not shown here. AID 434955, 2010;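 active = about 74% or more and at least 40 points above the plate without the antibiotic, then above 30% in a dose series; inconclusive = first-round hits that could not be retested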;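 also: growth measured after seven days incubation then overnight dye step; 0% = bacteria only wells and 100% = bacteria with antibiotic; twin plates without the antibiotic show which effects depend on it; some results filed as inactive read as strong as hits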
Mtb H37Rv – M. tuberculosis H37Rv growth inhibitors, H37Rv strain (AID 1626) | M. tuberculosis H37Rv growth inhibition; higher % means a stronger effect | one-dose inhibition, % at 10 µM; IC50 in µM for titrated hits | 220,000 compounds, 0.95% hits;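 active = confirmed in a dose series; inconclusive = inhibition above 80% but not taken into the dose series; inactive = below 80% or under 30% at every dose of the series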;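 also: bacteria incubated seven days before Alamar blue readout; 0% = bacteria only wells and 100% = bacteria with antibiotic wells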
Arbovirus inh repeat – also measured in Arbovirus inh; calls as there; inhibition, %; measured here: 10K subset replicate screen; many hits read low in the repeat;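 first of two repeat runs on a subset; 0% = infected and 100% = uninfected wells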
Numbers without * were called inactive.

`O=C(Nc1ccccc1N(C(=O)c1ccco1)S(=O)(=O)c1cccs1)c1ccco1` gave Arbovirus inh -5, YopH PTP inh -28, RecA splice inh 10, Mtb bLac sens -3 and Mtb H37Rv -7%.
`COC(=O)C1=C(C(=O)OC)[C@@H]2N(C)c3ccc(OC)cc3[C@@]23C[C@@H](C(=O)OC)N(C(=O)COCc2ccccc2)C3=N1` gave RecA splice inh 1.1, Mtb bLac sens 2 and Mtb H37Rv -5%.
Screening NC(=O)c1c(NC(=O)C2CC=CCC2C(=O)O)sc2c1CCCCC2 (centres undefined) returned RecA splice inh -2.3 and Mtb bLac sens 2.
`O=C(Cn1cc([N+](=O)[O-])ccc1=O)NCc1ccc(Cl)cc1Cl` gave RecA splice inh -0.3 and Mtb bLac sens 2.
`CCOc1ccccc1C(=O)N(Cc1ccccc1)Cc1cc2cc3c(cc2[nH]c1=O)OCCO3` gave YopH PTP inh -16, RecA splice inh -0.1, Mtb bLac sens 1 and Mtb H37Rv -3%.
Screening CCOC(=O)N1CCN(S(=O)(=O)c2ccc3c(c2)SC(C)C(=O)N3)CC1 (centres undefined) returned Arbovirus inh 14, YopH PTP inh -44, RecA splice inh 1.8 and Mtb bLac sens 2.
For COc1ccc(C2OCC3(CO2)SC(N)=NC3=O)cc1 (centres undefined) the results were Arbovirus inh 17, YopH PTP inh -35, RecA splice inh -0.8, Mtb bLac sens 3 and Mtb H37Rv 0%.
`COc1cc(OC)cc(C(=O)OCC(=O)N2CCCC2)c1` gave RecA splice inh 1.9 and Mtb bLac sens -2.
For COc1ccc(OC)c(NC(=S)N2CCN(C(=O)C3CCCO3)CC2)c1 (centres undefined) the results were RecA splice inh -1.8 and Mtb bLac sens -2.
`CCOC(=O)Cn1c(-c2ccc(Cl)nc2)nc2ccccc21` gave Arbovirus inh 0, YopH PTP inh -46, Mtb bLac sens 66 and Mtb H37Rv 12%.

Molecules listed so far containing a carbonyl joined to an NH by a bond outside any ring:
`O=C(Nc1ccccc1N(C(=O)c1ccco1)S(=O)(=O)c1cccs1)c1ccco1` gave Arbovirus inh -5, YopH PTP inh -28, RecA splice inh 10, Mtb bLac sens -3 and Mtb H37Rv -7%.
Screening NC(=O)c1c(NC(=O)C2CC=CCC2C(=O)O)sc2c1CCCCC2 (centres undefined) returned RecA splice inh -2.3 and Mtb bLac sens 2.
`O=C(Cn1cc([N+](=O)[O-])ccc1=O)NCc1ccc(Cl)cc1Cl` gave RecA splice inh -0.3 and Mtb bLac sens 2.

Continued.
COc1ccccc1NS(=O)(=O)c1cccc(C(=O)NCc2ccco2)c1 was read as Arbovirus inh 5, RecA splice inh 2.8, Mtb bLac sens -7 and Mtb H37Rv -1%.
Screening CC(C)CC(NC(=O)C1CCCN1C(=O)[C@@H](C)NC(=O)OCc1ccccc1)C(=O)NCC(N)=O (some centres undefined) returned RecA splice inh -0.2 and Mtb bLac sens -1.
For Cc1ccc(C2N3CCCN23)cc1 (centres undefined) the results were RecA splice inh 0.8, Mtb bLac sens -1 and Mtb H37Rv 2%.
`O=C(O)CS(=O)(=O)c1ccc(Oc2ccc(S(=O)(=O)CC(=O)O)cc2)cc1` gave YopH PTP inh -34, RecA splice inh -3.5, Mtb bLac sens -2 and Mtb H37Rv 0%.
For O=C(NCCCn1ccnc1)c1ccc(S(=O)(=O)Nc2ccccc2)cc1 the results were RecA splice inh 0.3, Mtb bLac sens 1 and Mtb H37Rv -3%.
Cc1nc(SCC(=O)NCCc2ccccc2)c2c(=O)n(C)c(=O)n(C)c2n1 was read as RecA splice inh -3.2 and Mtb bLac sens -3.
Screening Cn1c(NNC(=O)C(c2ccccc2)c2ccccc2)cc(=O)n(C)c1=O returned Arbovirus inh 17, RecA splice inh 1.3, Mtb bLac sens -8 and Mtb H37Rv -1%.
For CCOc1cc(NC(=S)Nc2cccc(OC)c2)c(OCC)cc1NC(=O)C(C)C the results were Arbovirus inh 0, YopH PTP inh -14, RecA splice inh -5.1, Mtb bLac sens -17 and Mtb H37Rv -7%.
`C/C(=N/NS(=O)(=O)c1ccc(C)cc1)c1c(O)c2ccccc2oc1=O` gave RecA splice inh -1.7, Mtb bLac sens -9 and Mtb H37Rv -7%.
For CCc1nnc(NC(=O)CN2CCN(Cc3cccc(F)c3)CC2)s1 the results were RecA splice inh 3.2 and Mtb bLac sens 8.
`CC(C)(C)OC(=O)N1CCC(CNC(=O)c2ccccc2)CC1` gave RecA splice inh -0.4, Mtb bLac sens -1 and Mtb H37Rv -1%.
`COc1cc(/C=C/C(=O)OCC(=O)c2c(N)n(C)c(=O)n(C)c2=O)ccc1O` gave Arbovirus inh 6, RecA splice inh -3.9, Mtb bLac sens 5 and Mtb H37Rv 0%.
Screening CN(C)S(=O)(=O)c1ccc(C(=O)NCc2cccs2)cc1 returned Arbovirus inh 2, YopH PTP inh 14, RecA splice inh 1.8, Mtb bLac sens inconclusive and Mtb H37Rv 1%.
Cc1cnccc1NC(=O)c1cccs1 was read as Arbovirus inh 4, RecA splice inh 3.0, Mtb bLac sens 0 and Mtb H37Rv -5%.
`COc1ccccc1CNC(=O)c1oc2ccccc2c1C` gave RecA splice inh 0.5 and Mtb bLac sens -13.
CCCOc1ccccc1NC(=O)Nc1ccccc1Cl was read as Arbovirus inh -3, RecA splice inh -1.9, Mtb bLac sens 4 and Mtb H37Rv 4%.
Screening O=C(NC1CC2CCC1C2)c1ccco1 (centres undefined) returned RecA splice inh -2.9 and Mtb bLac sens -1.
For CCCCN(C(=O)c1c(CC)noc1C)c1c(N)n(CCC)c(=O)[nH]c1=O the results were RecA splice inh -1.3 and Mtb bLac sens -5.
For CCOc1cc(Cl)c(NC(C)=O)cc1OCC the results were Arbovirus inh 2, YopH PTP inh -43, RecA splice inh -1.7, Mtb bLac sens -2 and Mtb H37Rv 0%.
`CN(CCOc1ccccc1)C(=O)c1cc([N+](=O)[O-])cc([N+](=O)[O-])c1` gave Arbovirus inh 1, RecA splice inh -4.1, Mtb bLac sens 100 and Mtb H37Rv -4%.
Cc1ccc(N2CCN(Cc3ccccc3)CC2=O)c(C)c1 was read as RecA splice inh 5.4 and Mtb bLac sens 4.
`CN(C(=O)c1c(Cl)nc2sccn12)C1CCCCC1` gave Arbovirus inh -5, YopH PTP inh 13, RecA splice inh 1.2, Mtb bLac sens 9 and Mtb H37Rv 13%.
For COC(=O)C(O)(c1ccc(NC(=O)c2ccco2)c(OC)c1)C(F)(F)F (centres undefined) the results were Arbovirus inh -1, YopH PTP inh -13, RecA splice inh 1.6, Mtb bLac sens -3 and Mtb H37Rv -3%.
`c1ccc2c(CNc3ccc(CNc4ncn[nH]4)cc3)cccc2c1` gave Arbovirus inh -31, YopH PTP inh 6, RecA splice inh 3.4, Mtb bLac sens 8 and Mtb H37Rv 2%.
For COC(=O)c1ccsc1NC(=O)c1ccc(Cl)s1 the results were Arbovirus inh 4, RecA splice inh -2.3, Mtb bLac sens 4, Mtb H37Rv -1% and Arbovirus inh repeat 4.
`COc1ccc(N2CCN(C(=O)COC(=O)/C=C/c3ccc(C(F)(F)F)cc3)CC2)cc1` gave RecA splice inh -1.8 and Mtb bLac sens -5.
Screening c1ccc(NC2=NCCN2CCC2CCCC2)cc1 returned RecA splice inh 0.7 and Mtb bLac sens -4.
COc1ccccc1OCCC(=O)Nc1nc(C)cs1 was read as RecA splice inh -18, Mtb bLac sens -7 and Mtb H37Rv 7%.
`Cc1csc(SCC(=O)Nc2cccc3nsnc23)n1` gave Arbovirus inh 9, YopH PTP inh 10, Mtb bLac sens 3 and Mtb H37Rv -5%.
For Cc1ccc(OCC(=O)NCCc2c[nH]c3ccccc23)cc1 the results were Arbovirus inh -15, RecA splice inh 3.1, Mtb bLac sens 7 and Mtb H37Rv 9%.
Screening CCc1ccc(-c2cc(C(=O)Nc3ccc(S(=O)(=O)NC(C)=O)cc3)c3ccccc3n2)cc1 returned Arbovirus inh 12, YopH PTP inh -43, RecA splice inh 5.6, Mtb bLac sens 48 and Mtb H37Rv 13%.
COC(=O)c1nc(NC(=O)c2ccc(Cl)cc2)n[nH]1 was read as Arbovirus inh 1, YopH PTP inh -29, RecA splice inh -2.5, Mtb bLac sens 4 and Mtb H37Rv -3%.
Screening CCCC1(C(=O)O)NC(c2ccc(OC)cc2O)C2C(=O)N(c3ccc(OC)cc3)C(=O)C21 (centres undefined) returned Arbovirus inh 1, YopH PTP inh -43, Mtb bLac sens 4, Mtb H37Rv -8% and Arbovirus inh repeat -1.
CCCOC1CCCN(C(=O)c2ccc(OC)c(OC3CCN(C(C)C)CC3)c2)C1 (centres undefined) was read as RecA splice inh 1.2 and Mtb bLac sens -8.
Cc1ccccc1OCC(=O)NNC(=O)c1ccc(-n2cncn2)c([N+](=O)[O-])c1 was read as RecA splice inh -2.1 and Mtb bLac sens -2.
`COC(=O)c1ccc2nc(C)cc(Nc3ccccc3C)c2c1` gave Arbovirus inh -5, RecA splice inh 0.7 and Mtb bLac sens -6.
`CCc1ccc(NC(=O)C2CCCN(S(=O)(=O)c3ccc4c(c3)CC(C)N4C(C)=O)C2)cc1` (centres undefined) gave RecA splice inh -0.9 and Mtb bLac sens -7.
For CC1(C)Cc2ccccc2C(=NCCCC(=O)O)N1 the results were Arbovirus inh 2, YopH PTP inh -11, RecA splice inh -1.2, Mtb bLac sens 1 and Mtb H37Rv -4%.
`CCOC(=O)C1CCCN(c2cc(C)nc3cc(-c4ccc(F)cc4)nn23)C1` (centres undefined) gave Arbovirus inh 12, YopH PTP inh -33, RecA splice inh 5.2, Mtb bLac sens 14 and Mtb H37Rv 7%.
CC1CCN(c2c(NCc3ccc(C(=O)NCc4cccnc4)cc3)c(=O)c2=O)CC1 was read as Arbovirus inh 6, YopH PTP inh -29, RecA splice inh 0.9, Mtb bLac sens 3 and Mtb H37Rv -4%.
Cc1ccc(NC(=O)[C@H](C)NC(=O)C2CCN(C(=O)[C@@H](N)C(C)C)CC2)cc1 was read as RecA splice inh -0.3 and Mtb bLac sens 0.
COC(=O)c1cc2ccsc2n1Cc1cccc(F)c1 was read as Arbovirus inh -8, YopH PTP inh -19, RecA splice inh 6.2, Mtb bLac sens 7 and Mtb H37Rv -2%.
`COc1ccc(-c2sccc2C(C)C(=O)O)cc1` (centres undefined) gave Arbovirus inh 5, YopH PTP inh -31, RecA splice inh 2.0, Mtb bLac sens -3 and Mtb H37Rv -6%.
Cc1cccc(C(=O)NC(=S)NNC(=O)COc2c(C)cccc2C)c1 was read as Arbovirus inh -17, YopH PTP inh -42, RecA splice inh -1.3, Mtb bLac sens 96 and Mtb H37Rv inconclusive.
`O=S(=O)(Nc1ccccc1N1CCCCC1)c1ccc(F)cc1` gave RecA splice inh 0.3, Mtb bLac sens 45 and Mtb H37Rv 10%.
`CCOC(=O)C1=C(c2ccccc2)NC(=O)NC1c1ccc(OCC#N)c(OC)c1` (centres undefined) gave Arbovirus inh 11, YopH PTP inh -22, RecA splice inh -3.5, Mtb bLac sens -2 and Mtb H37Rv 3%.
`CC(C)C(=O)Nc1ncc(C(F)(F)F)cc1Cl` gave Arbovirus inh -1, YopH PTP inh 21, RecA splice inh 4.2, Mtb bLac sens 0 and Mtb H37Rv -5%.
Screening COc1ccc(S(=O)(=O)N(CC(=O)Nc2ccccc2C(=O)N2CCOCC2)c2ccc(F)cc2)cc1 returned RecA splice inh -0.5 and Mtb bLac sens -9.
`Cc1ccc(NC(=O)COC(=O)/C=C/c2cccs2)c(C)c1` gave Arbovirus inh -2, YopH PTP inh -25, RecA splice inh -2.3, Mtb bLac sens 1 and Mtb H37Rv -5%.
For O=C(CSc1nnc(COc2ccccc2)o1)c1ccccc1 the results were Arbovirus inh -6, YopH PTP inh 9, RecA splice inh 1.6, Mtb bLac sens -2 and Mtb H37Rv -1%.
Screening CS(=O)(=O)Nc1ccc(C(=O)NCCC2=CCCCC2)cc1 returned Arbovirus inh 14, YopH PTP inh 15, RecA splice inh -0.8, Mtb bLac sens 0 and Mtb H37Rv 0%.
Screening COc1ccc(N2CCN(C(=O)c3ccc(NS(=O)(=O)c4cccs4)cc3)CC2)cc1 returned Arbovirus inh 3, RecA splice inh -5.6, Mtb bLac sens 1 and Mtb H37Rv -6%.

A draw from above in order of length of the SMILES, highest first.
`CCOC(=O)C1=C(c2ccccc2)NC(=O)NC1c1ccc(OCC#N)c(OC)c1` (centres undefined) gave Arbovirus inh 11, YopH PTP inh -22, RecA splice inh -3.5, Mtb bLac sens -2 and Mtb H37Rv 3%.
`O=S(=O)(Nc1ccccc1N1CCCCC1)c1ccc(F)cc1` gave RecA splice inh 0.3, Mtb bLac sens 45 and Mtb H37Rv 10%.
For O=C(CSc1nnc(COc2ccccc2)o1)c1ccccc1 the results were Arbovirus inh -6, YopH PTP inh 9, RecA splice inh 1.6, Mtb bLac sens -2 and Mtb H37Rv -1%.

Screening data deposited in PubChem BioAssay by several laboratories.

The list is partial. The share of hits here may be higher or lower than overall.
